# VDR inhibitor: Inhibitors of the vitamin D receptor (VDR): qHTS | Vitamin D3 receptor (Homo sapiens), P11473 | VDR-SRC2-3 peptide fluorescence polarization, 2 h | Potency, µM, inactives show max response, negative = inhibition, usual class: inhibitors | actives 0.93% (n = 400,000) | AID 504847, 2011; active = well fitted inhibition curve with a large enough effect; inconclusive = small, poorly fitted or top-dose-only effect, or another doubt; inactive = no such curve, though single readings can be large or run the other way; also: series mostly up to about 120 µM
# Target sequence (P11473 whole entry, looked up): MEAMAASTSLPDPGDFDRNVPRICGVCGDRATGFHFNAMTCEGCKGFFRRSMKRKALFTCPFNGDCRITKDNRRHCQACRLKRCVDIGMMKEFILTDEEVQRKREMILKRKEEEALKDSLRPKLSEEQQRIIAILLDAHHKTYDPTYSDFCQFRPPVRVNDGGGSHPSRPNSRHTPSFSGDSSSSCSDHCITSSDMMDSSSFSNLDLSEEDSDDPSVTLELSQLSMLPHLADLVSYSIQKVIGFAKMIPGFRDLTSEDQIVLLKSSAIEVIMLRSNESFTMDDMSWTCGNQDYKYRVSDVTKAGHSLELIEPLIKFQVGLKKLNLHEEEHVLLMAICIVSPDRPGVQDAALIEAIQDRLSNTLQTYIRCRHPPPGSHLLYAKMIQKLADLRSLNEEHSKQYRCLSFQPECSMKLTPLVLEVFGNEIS
#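 The screen uses fluorescence polarization to detect compounds that interfere with recruitment of the SRC2-3 coactivator peptide to VDR; plates are read after 2 h at room temperature.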
# The depositor's hits bear a star; u = inconclusive; & = joins results of further samples; [ ] = dose if it differs, or a comment. % is scaled to controls: 0 for no effect and ±100 for the full control effect; potency is read from the fitted curve at half-maximal effect.
structure	VDR inhibitor
CN(CC(=O)Nc1cccc(F)c1)C(=O)CN1C(=O)NC2(CCCC2)C1=O	-10%
CN(CCC#N)C(=O)COC(=O)c1ccc(Cl)cc1O	16%
CC(=O)C[C@H](c1ccc([N+](=O)[O-])cc1)c1c(O)c2ccccc2oc1=O	1%
CCOc1ccccc1-c1c2cc(O)c(=O)cc-2oc2cc(O)c(O)cc12	u
O=C(O)CSc1ncnc2scc(-c3ccccc3)c12	49%[activator]
O=C(NCCc1ccccc1)c1ccc2c(c1)N(Cc1ccccc1)C(=O)c1ccccc1S2(=O)=O	-15%
CNS(=O)(=O)c1ccc(NC(=O)c2cnn3c(C(F)F)cc(-c4ccccc4)nc23)cc1	-19%&1%
COc1ccc(NC(=O)c2ccc(N3CCCC3=O)cc2)cc1Cl	5%
O=C1CCc2cc(NS(=O)(=O)c3cc(F)ccc3F)cc3c2N1CC3	u
O=C(O)/C(=C\c1cn(-c2ccccc2)nc1-c1cccnc1)NC(=O)c1ccccc1	0%
CC(C)N(CCn1c(SCC(=O)Nc2cccnc2Cl)nc2ccccc2c1=O)C(C)C	-3%
CCOC(=O)c1c(CSC(=N)N)n(-c2ccccc2)c2cc(Br)c(OC(C)=O)cc12	-14%
C=C(C)c1cccc(C(C)(C)NC(=O)NCC2COCCO2)c1 (stereo not given)	12%
CC1CCCN(S(=O)(=O)c2ccc(S(=O)(=O)N3CCC4(CC3)OCCO4)cc2)C1 (stereo not given)	-7%
COC(=O)[C@@]12CCCN1[C@H](c1ccc(-c3ccc(OC)cc3)cc1)[C@@H]1C(=O)N(C)C(=O)[C@@H]12	-7%
COc1ccc(NCc2ccccc2[N+](=O)[O-])cc1OC	u
Cc1nc2ccccc2n1CC(=O)NC1CCCCCC1	19%
Cc1cc(C)cc(NC(=O)C2CCCN(c3ncccn3)C2)c1 (stereo not given)	2%
CCOC(=O)Cc1csc(SCc2nc3sc4c(c3c(=O)[nH]2)CCC4)n1	-7%
Cc1ccsc1C(=O)N1CCc2ccccc2C1	3%
O=C(c1cc(-c2ccc(Br)cc2)n[nH]1)N1CCN(S(=O)(=O)c2ccc(Br)s2)CC1	8%
COc1ccc(/C=N/NC(=O)c2nnn(-c3nonc3N)c2-c2cccc(OC)c2)cc1	-3%
CC(=O)c1c(C)[nH]c(C(=O)N2CCN(c3ccccn3)CC2)c1C	19%
O=C1c2ccccc2NC(c2ccc3c(c2)OCO3)N1O (stereo not given)	-14%
CCNC(=O)COc1ccc(F)cc1C(=O)c1cnn(-c2ccccc2)c1	2%
O=C(Nc1nc2cc3c(cc2s1)OCO3)c1cccc(N2C(=O)CCC2=O)c1	5%
CC1CCN(c2ccc(NC(=O)c3cccnc3Cl)cc2)CC1	-4%
COCCn1c(SCC(=O)Nc2ncc(Cl)c(C)c2Cl)nc2ccccc21	-9%
COc1ccc(COc2cc(-c3cccc(OC)c3)nc3ccc(NC(=O)c4ccccc4)cc23)cc1	2%&13%
COc1ccc(-c2nn(-c3ccccc3)cc2/C=N/NC(=O)c2cccc(S(=O)(=O)Nc3ccccc3OC)c2)cc1	-2%
N#Cc1cc(N)ccc1Sc1ccc(Cl)cc1	-1%
CC(=O)Nc1nc(-c2ccc(Cl)cc2)ns1	0%
CC(=O)OC1CC[C@@]2(C)C3=CC(=O)[C@]4(C)C(CC5OC6(OCC(C)CC6Br)C(C)C54)C3CC[C@H]2C1 (stereo not given in full)	0%
COc1ccccc1/C=C/C=N/n1c(-c2ccc(C)cc2)n[nH]c1=S	-22%
O=C(NCCCn1ccnc1)C(F)(F)C(F)(F)C(=O)NCCCn1ccnc1	25%
CCOc1ccc(Cc2n[nH]c(=S)n2N)cc1	-9%
CC(=O)NC1c2ccccc2C(=O)N1Cc1ccccc1 (stereo not given)	-22%
CCOC(=O)N1CCN(C(=O)c2ccc3nc(N4CCC(C)CC4)sc3c2)CC1	-6%
Cc1cc(C)c2c(CC(=O)N3CCN(c4cccc(Cl)c4)CC3)coc2c1	-1%
COc1c2ccoc2c(OC)c2oc(=O)ccc12	-3%&-3%
COc1cc(S(=O)(=O)N2CCOCC2)c(OC)c(S(=O)(=O)N2CCOCC2)c1	-8%
O=C(O)c1ccc(CNC(=O)c2ccccc2NC(=O)c2cccc([N+](=O)[O-])c2)cc1	6%
O=C(N/N=C/c1cccnc1)c1cc(-c2cccs2)nc2ccccc12	-9%
COc1ccccc1N1CCN(c2ncccc2-c2nc(-c3ccc(Cl)cc3)no2)CC1	4%
Cc1ccc(NC(=O)CSc2nsc(SCC(=O)Nc3ccc(C)cc3C)c2C#N)c(C)c1	-3%
CN(C)c1nc(N(C)C)nc(N2CC(CCl)OC2=N)n1 (stereo not given)	-19%
CCOc1cc(CNn2cnnc2SCC(=O)NC(C)(C)C)ccc1OCC(=O)NC(C)(C)C	2%
CSc1ccccc1NC(=O)COC(=O)c1c[nH]c(=O)[nH]c1=O	-9%
CCOC(=O)C(C)Sc1nnc(CNC(=O)c2ccc(OC)cc2)n1C1CCCCC1 (stereo not given)	-9%
O=C(CSC1=NCCS1)Nc1ccnc2ccccc12	-10%
CCC(=O)NCCCCCCNC(=O)CC	2%
O=C(Nc1cc(C(F)(F)F)ccc1Cl)C(Sc1nnc(-c2cccs2)o1)c1ccccc1 (stereo not given)	-21%
CC(NC(=O)CCc1nnc(CCCc2ccccc2)o1)c1ccccc1 (stereo not given)	8%
COc1ccc(/C=C/C(=O)Nc2sc(C)c(C)c2C(=O)O)cc1	u
O=C(NCc1ccccc1C(F)(F)F)C1CCC(=O)N(C2CC2)C1 (stereo not given)	7%
Cc1ccc(S(=O)(=O)NC(=O)NC(=O)N(C)S(=O)(=O)c2ccc(C)cc2)cc1	12%
CCCCN(CCCC)CCNC(=O)c1cn(C)c2ccc(S(=O)(=O)N3CCCC3)cc2c1=O	-2%&4%
Cc1c(C(=O)NCc2ccc3c(c2)OCO3)cccc1[N+](=O)[O-]	5%
O=C(NCCn1ccc2ccccc21)c1ccc(S(=O)(=O)N2CCCCC2)cc1	-12%
CCOC(=O)C1=CN(Cc2cccc(I)c2)S(=O)(=O)N(C)C1C (stereo not given)	-3%

# (list continues)
structure	VDR inhibitor
Cc1ccc(C)c(CN2C(=O)COc3ccccc32)c1	u
Cc1cc(C)c(C)c(S(=O)(=O)NC2CCCCC2)c1C	11%
COc1ccc(C(=O)CSC2=NS(=O)(=O)c3cc(Cl)ccc3N2)cc1	22%
CCOc1ccccc1NC(=S)Nc1ncccc1C	-18%
O=C(C[C@H]1C/C=C\C[C@@H](Cc2ccc(F)cc2)C(=O)OC[C@H]2CCCN2C1=O)NCCO	9%
COc1cccc(NC(=O)CSc2nc(C)cs2)c1	-23%
Cc1ccc(Nc2nc3c([nH]2)c(=O)[nH]c(=O)n3C)cc1	8%
COc1cc(OC)c(NC(=O)Nc2c(C)n(C)n(-c3ccccc3)c2=O)cc1Cl	-8%
CC(=O)N1c2ccc(S(=O)(=O)NCCC(=O)N3CCC(C)CC3)cc2CC1C (stereo not given)	-26%
CCOC(=O)c1cccc(NS(=O)(=O)Cc2ccccc2)c1	-4%
Cn1c(=NC(=O)CS(=O)(=O)c2ccccc2)sc2ccccc21	-12%
CCN(C(=O)C1=COCCO1)c1nc2c(C)cccc2s1	1%
COC(=O)N/N=C/c1cc([N+](=O)[O-])cc(Br)c1O	-14%
O=C1C(=O)N(c2ccccc2)c2ccccc21	-4%
CC1CCN(C(=O)CNC(=O)c2ccc(Cl)cc2Cl)CC1	-1%
CCC(C)NC(=O)CCSc1nc(-c2ccc3c(c2)OCO3)cc(C(F)(F)F)n1 (stereo not given)	-6%
COC(=O)CCc1ccccc1S(=O)(=O)N(CCC(=O)OC)Cc1ccccc1	0%
Cc1c(C(=O)OCC(O)=C(C#N)c2nc3ccccc3[nH]2)oc2ccc(Br)cc12	33%[activator]
CC1CCCC(C)N1C(=O)CN1c2cccc3cccc(c23)S1(=O)=O (stereo not given)	13%
O=C(CN1CCN(S(=O)(=O)c2ccccc2)CC1)NC(=O)NCc1ccccc1	-6%
CC(C)N1CCN(Cc2ccc(-c3ccccc3Cl)o2)CC1CCO (stereo not given)	-9%
O=C(NC1CC1)C(=O)c1c(-c2ccccc2)[nH]c2ccccc12	-8%
Cc1ccc(CNc2ncnc3cc(Cl)ccc23)cc1	6%
CCCc1nc2oc3c(=O)[nH]cnc3c2c2c1COC(C)(C)C2	-9%
Cc1ccc(SCc2ccc(C(=O)Nc3ccccc3C(=O)NC(C)C)cc2)cc1	-20%
CC1CCCC(C)N1C(=O)c1cccc2c1-c1ccccc1/C2=N/O (stereo not given)	-7%
Cc1ccc([N+](=O)[O-])cc1NC(=O)c1ccc(C(C)(C)C)cc1	13%
O=C(Cc1ccccc1)NCC(=O)OCC(=O)c1ccc2ccccc2c1	-17%
COc1ccc(/C=C/c2nnc(NC(=O)CC(C)C)s2)cc1	-8%
Cc1nc2nc(C)c(CCC(=O)N3CCOCC3)c(C)n2n1	-15%
CCCN(CC(=O)Nc1cc(Cl)cc(Cl)c1)CC(=O)Nc1ccc(F)c(F)c1F	-7%
COc1ccc(-c2[nH]ncc2CN2CCC(N3CCSCC3)CC2)c(F)c1	-27%
O=C(N/N=C/c1cccc(Cl)c1)c1c(O)c2c([nH]c1=O)CCCC2	5%
O=C(Nc1ccc(Oc2ccccc2)cc1)c1ccc(F)c(S(=O)(=O)N2CCN(c3ccccc3F)CC2)c1	13%
CCc1cccc(C)c1NC(=O)CSc1nc2ccccc2n1CC(=O)N(C)C	-22%
COc1ccc2[nH]c(=O)c(CN(C(=O)c3cccc(Cl)c3)c3ccccc3OC)cc2c1	6%
Clc1cc(Cl)c(Cl)c(Cl)c1Cl	-3%
O=C(O)c1cccnc1Br	1%
S=c1[nH]nc(C2CC2)n1Cc1ccco1	-8%
COc1cccc(OCc2cc(=O)n3c(-c4ccccc4)csc3n2)c1	-5%
CCc1ccc(NC(=O)c2cc(S(=O)(=O)N3CCCCC3)c[nH]2)cc1	15%
CCNC(=S)NNC(=O)CSc1nc2ccccc2[nH]1	-2%
Cc1cc(O)c2c(C)c(CC(=O)N3CCN(C(=O)C4COc5ccccc5O4)CC3)c(=O)oc2c1 (stereo not given)	-1%
CC1c2ccsc2CCN1S(=O)(=O)c1ccccc1 (stereo not given)	-5%
S=C(Nc1ccccc1)N1CCn2c(nc3ccccc32)C1	5%
Cc1nc(SCc2nc3ccc(Br)cc3[nH]2)c2oc3ccccc3c2n1	-11%
Cc1ccc(S(=O)(=O)c2nc(-c3ccc(F)cc3)oc2SCC(=O)NCC2CCCO2)cc1 (stereo not given)	-5%
CCCC1(CCC)C(=O)NC(=NCCc2ccc(OC)c(OC)c2)NC1=O	1%
Cc1ccc(NC(=O)c2cccc(C(F)(F)F)c2)cc1NC(=O)c1[nH]cnc1C(N)=O	-1%
CC(=NO)c1ccc2c(c1)C(=NO)c1ccccc1-2	-6%
O=C(NCCc1csc(-c2cccnc2)n1)c1ccccc1	16%&-23%
CC(=O)c1nn(-c2ccc(Cl)cc2)c(=O)[nH]c1=O	-16%
O=c1cc(-c2ccccc2)nc(SCCOc2ccccc2Cl)[nH]1	15%
O=C1CSC(=Nc2ccccc2[N+](=O)[O-])N1	6%
CC1(C)NC(=O)N(CCCOc2ccc(Br)cc2Cl)C1=O	-12%
O=C(Cn1c(=O)c(C(F)(F)F)nc2ccccc21)Nc1ccc(Br)cc1F	5%
CCCCCC1CC(=O)C=C(C)C1C(=O)OC (stereo not given)	1%
S=c1nc[nH]c2c1[nH]c1ccc(Cl)cc12	10%
Cc1cc(SCC(=O)NCCC2=CCCCC2)nc2ccccc12	u
COc1cc2c(cc1OC)[C@H](C)N(C(=O)NCc1ccccc1)CC2	-11%

# The list goes on:
structure	VDR inhibitor
O=C(NCc1ccc2c(c1)OCO2)c1ccc(CS(=O)(=O)c2cccc(C(F)(F)F)c2)o1	-7%
O=C(NCCCN1CCOCC1)C(c1ccccc1)c1ccccc1	0%
CC(C)(CSc1nncn1N)NS(=O)(=O)c1ccc(Cl)cc1	-6%
CCOc1cc(C(=O)OCc2cc(=O)n3c(C)csc3n2)cc(OCC)c1OCC	8%
O=C(N/N=C/c1cccs1)c1cnccn1	-2%
CCC(C(=O)Nc1c(C)cc(C)cc1C)N1CCCCCC1 (stereo not given)	-18%
Cc1nnc(SCC(=O)NCc2cccs2)n1-c1ccccc1	-9%
COc1ccc(N2CCN(CC(=O)Nc3cc(C)on3)CC2)cc1	4%
Cc1ccc(C)c(SCc2nc3sc(C(=O)O)c(C)c3c(=O)[nH]2)c1	-5%
CCN(CC)CCN(C(=O)c1ccco1)c1nc2ccc(Cl)cc2s1	-3%

# Part of the list above, as labelled records.
> S=c1nc[nH]c2c1[nH]c1ccc(Cl)cc12
  VDR inhibitor: 10%
> Cn1c(=NC(=O)CS(=O)(=O)c2ccccc2)sc2ccccc21
  VDR inhibitor: -12%
> COc1ccccc1N1CCN(c2ncccc2-c2nc(-c3ccc(Cl)cc3)no2)CC1
  VDR inhibitor: 4%

# Compound activity deposited in PubChem by National Center for Advancing Translational Sciences (NCATS).

# An excerpt (hit frequency here may not be typical).
